Compound activity as filed in PubChem BioAssay.
UCH37 inh: inhibitors of human deubiquitinating enzyme UCH37; Q9Y5K5; purified proteasome/UCH37, Ub-AMC cleavage fluorescence; inhibition, % (test concentration not listed); 330,000 tested, 0.33% active; AID 588478;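 active means mean of two replicates above 20%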;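 further: 0% = compound-free wells with enzyme and 100% = wells lacking proteasome; stock transfer was 100 nL into about 20 µL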
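Material: human UCH37 enzyme supplied as purified proteasome complex. Measure: % inhibition of Ub-AMC cleavage fluorescence. Medium: pH 7.4 Tris-HCl (50 mM) with ovalbumin, ATP-MgCl2, DTT. Times: 30 min preincubation with enzyme, 25 min cleavage at room temperature. Detection: AMC fluorescence intensity at 355/460 nm.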
FGF22 binding: FGF22 (human) thermal shift binding; recombinant FGF22 thermal shift, SYPRO orange fluorescence; percent of sucrose octasulfate shift, DMSO zero; 340,000 tested, 1.5% active; calls only at 9.99 µM; Q9HCT0; AID 651658;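 active means melting point raised past a set limit in the mean and every replicate; inconclusive means no clear call; three in four hits are not shown here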
Target sequence (Q9HCT0 whole entry, looked up): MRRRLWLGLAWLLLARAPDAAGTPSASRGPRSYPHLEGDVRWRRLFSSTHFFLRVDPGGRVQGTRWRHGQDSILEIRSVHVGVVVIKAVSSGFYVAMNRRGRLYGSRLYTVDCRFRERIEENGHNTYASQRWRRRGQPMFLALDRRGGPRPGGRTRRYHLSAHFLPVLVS
LANA-H2B inh: blocks KSHV LANA binding to histone H2A/H2B. Q9QR71. cell-free LANA-H2A/H2B peptide, fluorescence polarization. inhibition, % (no concentration beside the values). 320,000 tested, 0.6% active. AID 2629; in the data active means inhibition mostly above about 10%, no sharp cut-off; inactive means mostly below about 6.7%;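 further: stock transfer was 7.5 nL into about 10 µL; 0% = median of vehicle wells and 100% = median of positive control wells; one replicate is shown; the record names a cut of 25% in any replicate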
Ecoli growth: blocks Escherichia coli growth; OD600, 23 h; hits give low values; OD600 absorbance (no concentration beside the values); 330,000 tested, 0.21% active; AID 1053175;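 active means OD600 absorbance below the run mean of sample wells minus 3.6 SD, in any replicate, cut at about 0.56 in these data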;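 further: stock transfer was 300 nL into about 60 µL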
ALR H2O2 inh: inhibitors of human sulfhydryl oxidase ALR. P55789. purified ALR, DTT oxidation, H2O2 HRP-luminol luminescence. inhibition, % (no concentration beside the values). 290,000 tested, 3.8% active. AID 485317;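 active means mean and each replicate at 75% or more; inconclusive means only one of the two met; inactive means neither met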;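 further: stock transfer was 7.5 nL into about 7.5 µL; 0% = neutral wells and 100% = wells with inactivated enzyme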
Target sequence (P55789 whole entry, looked up): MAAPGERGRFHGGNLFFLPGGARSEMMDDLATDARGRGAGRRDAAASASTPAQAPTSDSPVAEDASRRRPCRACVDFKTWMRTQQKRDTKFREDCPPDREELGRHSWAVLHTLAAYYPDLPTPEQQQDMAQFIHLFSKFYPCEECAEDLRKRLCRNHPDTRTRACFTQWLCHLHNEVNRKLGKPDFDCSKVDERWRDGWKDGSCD
HNF4A DNA FP: change in binding of human HNF4 alpha to DNA; P41235; HNF4a-FITC DNA binding, fluorescence polarization, 1 h; 360,000 tested, 0.3% active; activity change, % at 10 µM; in the data active means activity change above about 30%, passing the limit was not always enough;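 further: controls were the assay level and a saturating level of protein; the project sought stronger binding though the title names inhibitors; some compounds called inactive have numbers as strong as hits; positive values seem to mean higher polarization but the record does not say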
Target sequence (P41235 whole entry, looked up): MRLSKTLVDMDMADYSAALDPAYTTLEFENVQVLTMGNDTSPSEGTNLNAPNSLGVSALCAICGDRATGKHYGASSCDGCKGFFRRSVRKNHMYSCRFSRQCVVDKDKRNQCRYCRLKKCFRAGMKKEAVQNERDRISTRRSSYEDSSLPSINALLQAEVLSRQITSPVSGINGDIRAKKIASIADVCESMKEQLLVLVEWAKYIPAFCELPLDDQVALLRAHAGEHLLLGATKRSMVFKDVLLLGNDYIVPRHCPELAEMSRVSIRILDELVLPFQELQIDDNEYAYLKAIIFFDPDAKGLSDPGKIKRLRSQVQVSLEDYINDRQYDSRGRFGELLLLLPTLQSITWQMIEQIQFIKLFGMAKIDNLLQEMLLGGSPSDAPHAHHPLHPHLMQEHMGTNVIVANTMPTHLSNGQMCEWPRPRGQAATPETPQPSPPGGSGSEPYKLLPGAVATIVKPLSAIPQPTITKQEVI
Beta2AR agonist: activates human beta-2 adrenergic receptor causing internalization; Am2.2-beta2AR cells, FAP receptor internalization, flow cytometry; reference of the scale not given here; response, % (concentration not given with the values); AID 504454; P07550; 340,000 tested, 0.43% active;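 active means response above a set limit, near 3 SD of response in nonfluorescent compounds, cut at about 42% in these data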;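 further: stock transfer was 100 nL into about 11 µL; a reference agonist was the positive control; negative values mostly stem from fluorescent compounds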
Active calls of the source: *; i = inactive; ? = inconclusive; . = no result given; & = joins results of further samples. Not all compounds are listed, so the mix of outcomes need not match the whole.

entry | structure | UCH37 inh | FGF22 binding | LANA-H2B inh | Ecoli growth | ALR H2O2 inh | HNF4A DNA FP | Beta2AR agonist
1 | COCC(C)n1c(C)cc(C(=O)COC(=O)c2ccc(N3CCCC3=O)cc2)c1C (stereo unspecified) | 0.9 | . | -2.6 | 0.71 | -8 | 2.1 | 0
2 | C/C(CCN1CCc2nc(-c3ccccc3)c(-c3ccccc3)cc2C1)=N\O[C@@H](C)c1cc(-c2c(C)cc(C)cc2C)no1 | . | . | 0.7 | . | 0 | 7.5 | 0
3 | CCCNC(=O)NS(=O)(=O)c1ccc(Cl)cc1 | 5.2 | i | 1.9&-2.2 | 0.66 | . | -1.7 | 1
4 | O=S(=O)(c1ccc(N2CCN(c3ccc(F)cc3)CC2)cc1)N1CCCC1 | 1.4 | . | 0.2 | 0.72 | -11 | -3.4 | 0
5 | CCOC(=O)N1CCC(NC(=O)C2CCCN(c3nc4ccccc4o3)C2)CC1 (stereo unspecified) | 1.3 | . | -3.6 | 0.73 | -14 | 2.6 | -8
6 | COc1ccc(NC(=O)CN2CCN(S(=O)(=O)N3CCCCCC3)CC2)cc1 | -0.7 | . | 5.6 | 0.69 | 5 | 1.7 | 9
7 | CCn1c(COc2ccccc2C)nnc1SCC(=O)OC | 2.0 | . | 3.6 | 0.71 | -3 | -1.5 | 6
8 | Cn1nc(C(C)(C)C)cc1C(=O)Nc1nc2c(s1)C(=O)CC(C)(C)C2 | 7.9 | . | -2.5 | 0.7 | 5 | 3.9 | 3
9 | CCNC(=S)N(CCc1c(C)[nH]c2ccc(C)cc12)Cc1cc(OC)c(OC)c(OC)c1 | 3.8 | i | 1.3 | 0.72 | . | 1.1 | 8
10 | Cc1ccc(NC(=O)CN(C)Cc2ccc(F)cc2)c([N+](=O)[O-])c1 | 1.1 | . | . | 0.66 | . | 0.8 | -8
11 | O=C(COC(=O)c1cccc(C(=O)OCC(=O)NC2CC2)n1)NC1CC1 | 3.9 | i | 2.3 | 0.68 | -4 | -0.7 | 9
12 | O=C(O)C1CC(=O)N(CCc2ccccc2)C1 (stereo unspecified) | 2.1 | . | 0.1 | 0.73 | 0 | -0.5 | 4
13 | O=C(c1cn(-c2ccccc2)nc1-c1cccs1)N1CCOCC1 | 1.7 | . | -0.7 | 0.71 | 0 | 0.8 | -1
14 | CC1=CCC(Cc2nc3ccccc3o2)C1(C)C (stereo unspecified) | -2.4 | . | -1.3 | 0.67 | -4 | 3.4 | -1
15 | O=C(COc1ccc(F)cc1)N1CCc2ccccc2C1 | . | i | -6.5 | . | . | -7.0 | -10
16 | COc1ccc(Cc2nc3ccc(C(=O)NC(C)c4cnn(C)c4)cc3o2)cc1 (stereo unspecified) | 0.9 | i | 1.4 | 0.65 | -10 | 0.5 | 1
17 | Cc1cc(C(=O)OCC(=O)N2CCOCC2)ccc1[N+](=O)[O-] | 3.0 | i | 2.6 | 0.7 | -2 | 1.5 | 7
18 | CCCCC(=O)Nc1ccc(C(=O)Nc2ccc3c(c2)OCO3)cc1 | -0.2 | i | -2.6 | 0.63 | -8 | 8.0 | 10
19 | CCc1nnc(SCC(=O)NC2CC2)n1CC | 4.0 | i | 2.6 | 0.69 | -2 | 3.6 | -1
20 | CSCCC(N=CC1=C(O)CC(C)(C)CC1=O)C(=O)O (stereo unspecified) | 1.4 | . | -3.0 | 0.77 | -35 | 5.0 | 5
21 | COC(=O)c1c(NC(=O)CSc2n[nH]c(N)n2)sc(C)c1C | -6.9 | . | 2.8 | 0.78 | 0 | 0.0 | 7
22 | CCCN1C(=O)c2[nH]nc(-c3cc(Cl)c(C)cc3O)c2C1c1ccc(O)c(OC)c1 (stereo unspecified) | 1.7 | i | 5.1 | 0.69 | 7 | 3.2 | 7
23 | COc1cc(/C=N/Nc2ccc(C(F)(F)F)cn2)ccc1O | . | i | -6.3 | . | 99* | -4.0 | 1
24 | CC(=O)Nc1ccc2c(c1Br)Cc1ccccc1-2 | 0.8 | i | . | 0.67 | . | -1.1 | -2
25 | COc1cc(C(=O)Nc2nc(C)c(Cc3ccc4c(c3)OCO4)s2)cc(OC)c1OC | -16 | . | 4.2 | 0.71 | -3 | -4.1 | 19
26 | Cc1cccc(Cn2cccc2/C=C2/C(=N)N3C=CSC3=NC2=O)c1 | -6.2 | . | -1.1 | 0.68 | -2 | 10 | -1
27 | Cc1ccc(NC2=NCC(=O)N2Cc2ccccc2)c(C)c1 | -2.1 | . | 3.8 | 0.75 | -8 | 2.0 | -3
28 | O=[N+]([O-])c1ccccc1S(=O)(=O)NCc1cccnc1 | 0.8 | . | 1.3 | 0.68 | -4 | -2.2 | 12
29 | O=c1c(Cc2ccc(Cl)cc2Cl)c(O)ccn1Cc1ccc(Cl)cc1 | 0.6 | . | -4.7 | 0.7 | . | 0.7 | 2
30 | Cc1c2ccccc2nc2c(F)c(NC(C)C)c(F)c(F)c12 | -3.1 | . | -0.5 | 0.65 | -14 | -63 | -35
31 | CCOc1ccc(NC(=O)Cn2c(=O)oc3cc(Cl)ccc32)cc1 | -1.0 | i | -3.9 | 0.69 | 3 | -4.2 | -4
32 | CC12CCC(=O)N1C(C(=O)Nc1nc3ccc(Cl)cc3s1)CS2 (stereo unspecified) | 2.5 | i | 0.3 | 0.59 | ? | -1.4 | -10
33 | CCN(c1ccccc1)S(=O)(=O)c1cc(OC)ccc1OC | 1.0 | . | -3.1 | 0.73 | -7 | -0.9 | 3
34 | COC(=O)COc1ccc(C2NC(=O)NC(C)=C2C(=O)NCc2ccccc2)cc1OC (stereo unspecified) | 4.6 | i | 0.3 | 0.7 | 2 | -3.3 | -6
35 | O=C(c1ccc2nc[nH]c2c1)N1CCN(S(=O)(=O)c2cccc(F)c2)CC1 | 1.4 | i | -9.8 | 0.71 | -5 | -3.3 | 3
36 | CCOc1ccccc1OCCn1nc2ccccc2n1 | 0.5 | . | 3.1 | 0.66 | -12 | -0.7 | -6
37 | Cc1ccnc(NC(=O)CCc2c[nH]c3ccccc23)c1 | 1.7 | i | 1.8 | 0.67 | 14 | 1.3 | -6
38 | Cc1cc(C)c(CN2CCCC(CNC(=O)c3ccc(F)cc3)C2)c(-n2cccn2)c1 (stereo unspecified) | -0.4 | i | 0.8 | 0.67 | -2 | -1.9 | -2
39 | CC(NC(=O)NCc1cccnc1)(C(F)(F)F)C(F)(F)F | -2.8 | . | -1.0 | 0.71 | 6 | -4.6 | 1
40 | CC(C)(CC(=O)O)CC(=O)NCc1c(Cl)cccc1Oc1ccccc1 | 3.1 | i | -2.4 | 0.7 | -3 | 5.8 | 2
41 | Cc1cc(C(=O)COC(=O)c2cc(O)c3ccccc3c2O)c(C)n1CC1CCCO1 (stereo unspecified) | -34 | . | . | 0.71 | . | -8.2 | 19
42 | Nc1cccc2cc(-c3ccccc3)oc12 | -22 | i | . | 0.6 | 2 | -0.6 | 0
43 | CCSc1nc2cc(OC)c(OC)cc2c(=O)n1CC | 2.1 | . | 9.0 | 0.69 | -13 | -0.1 | 11
44 | CCCCCCOc1ccc(N2C(=O)CC(SCCN)C2=O)cc1 (stereo unspecified) | -0.2 | i | 0.4 | 0.71 | -4 | 1.4 | 0
45 | Cc1ccc(C)c(S(=O)(=O)N2CCN(c3nc(CN4CCOCC4)nc4sc(C)c(C)c34)CC2)c1 | 0.7 | i | -5.1 | 0.69 | . | 0.8 | 0
46 | COc1ccc(-c2cc(C(=O)N/N=C(\C)c3ccco3)c3ccccc3n2)c(OC)c1 | . | i | 7.9 | . | 9 | 1.8 | -8
47 | C=COC(=O)CSc1nc(-c2cccs2)ccc1C#N | -40 | i | 2.1 | 0.72 | -5 | 2.6 | 10
48 | CC1Cc2ccccc2N1C(=O)C1CCN(S(=O)(=O)c2cccs2)CC1 (stereo unspecified) | 6.4 | . | -2.4 | 0.74 | 11 | -1.7 | 8
49 | O=C(NCc1ccccc1)c1onc(CSc2ccc(F)cc2)c1C(=O)NCc1ccccc1 | 3.9 | . | 1.6 | 0.69 | 0 | -1.2 | 4
50 | CCOC(=O)CNC(=S)NN(C)C | 0.5 | i | -3.3 | 0.69 | . | 2.0 | 4

Ordered by length of the SMILES (high to low): part of the list above
entry | structure | UCH37 inh | FGF22 binding | LANA-H2B inh | Ecoli growth | ALR H2O2 inh | HNF4A DNA FP | Beta2AR agonist
45 | Cc1ccc(C)c(S(=O)(=O)N2CCN(c3nc(CN4CCOCC4)nc4sc(C)c(C)c34)CC2)c1 | 0.7 | i | -5.1 | 0.69 | . | 0.8 | 0
30 | Cc1c2ccccc2nc2c(F)c(NC(C)C)c(F)c(F)c12 | -3.1 | . | -0.5 | 0.65 | -14 | -63 | -35
50 | CCOC(=O)CNC(=S)NN(C)C | 0.5 | i | -3.3 | 0.69 | . | 2.0 | 4

More results follow:
entry | structure | UCH37 inh | FGF22 binding | LANA-H2B inh | Ecoli growth | ALR H2O2 inh | HNF4A DNA FP | Beta2AR agonist
51 | CC1(C)CC(=O)C(CC2=C(O)CC(C)(C)CC2=O)C(=O)C1 | 0.2 | . | -0.5 | 0.69 | 9 | 2.8 | -1
52 | COc1ccccc1OCCCn1cc(C#N)c2ccccc21 | 1.5 | . | 1.1 | 0.76 | -2 | 2.1 | 2
53 | CCN(CC)c1ccc(/C=N/Nc2cccc(C)c2)c(O)c1 | . | . | -7.6 | . | -8 | 5.5 | 1
54 | O=C1CN(c2ccc(Cl)cc2)C(=O)CN1NC(=S)Nc1ccc(Cl)cc1 | 0.2 | . | 1.7 | 0.73 | 4 | 3.0 | 4
55 | CCC(=O)N(Cc1cc2ccc(C)cc2[nH]c1=O)c1ccccc1OC | -5.8 | i | -2.1 | 0.71 | . | 3.4 | 3
56 | COc1ccc(C(=O)N2CCN(c3ncccn3)CC2)cc1 | -1.4 | . | -2.0 | 0.67 | 0 | -2.4 | -12
57 | O=C(OCn1nnc2ccccc2c1=O)c1cccnc1Cl | 5.0 | . | -1.0 | 0.74 | 0 | 2.8 | -2
58 | CCCCN1CCCCC1C(=O)Nc1c(C)cc(C)cc1C (stereo unspecified) | 1.2 | . | 2.0 | 0.71 | -10 | -1.6 | 15
59 | COC(=O)c1ccc(S(=O)(=O)NCc2cccc(OC)c2)n1C | 0.0 | . | 3.3 | 0.78 | 6 | 2.5 | -5
60 | CSCCC(=O)Nc1nc(-c2ccccn2)cs1 | 1.5 | i | . | 0.66 | . | -8.0 | -1
61 | COC(=O)c1sccc1NC(=O)c1ccccc1 | 1.5 | i | -3.7 | 0.68 | 0 | 1.7 | 5
62 | CC1CCN(S(=O)(=O)c2cccc(S(=O)(=O)N3CCCC3)c2)CC1 | 1.8 | i | 2.9 | 0.62 | 0 | -0.1 | 4
63 | Cc1cccc(-n2c(N)cc(=O)nc2SCC(=O)Nc2cc(C)on2)c1 | 0.6 | . | 0.3 | 0.68 | -8 | -0.1 | -2
64 | Cc1ccc(-n2ncc3c2CC(C)(C)CC3NC(=O)CCCN2CCCC2=O)cc1 (stereo unspecified) | -2.0 | i | 2.3 | 0.68 | -15 | -0.9 | -8

Complete entries from above.
Entry for `Cc1cccc(Cn2cccc2/C=C2/C(=N)N3C=CSC3=NC2=O)c1` → UCH37 inh = -6.2; FGF22 binding = .; LANA-H2B inh = -1.1; Ecoli growth = 0.68; ALR H2O2 inh = -2; HNF4A DNA FP = 10; Beta2AR agonist = -1
Entry for `COCC(C)n1c(C)cc(C(=O)COC(=O)c2ccc(N3CCCC3=O)cc2)c1C` (stereo unspecified) → UCH37 inh = 0.9; FGF22 binding = .; LANA-H2B inh = -2.6; Ecoli growth = 0.71; ALR H2O2 inh = -8; HNF4A DNA FP = 2.1; Beta2AR agonist = 0
